# D2 PAM = Beta-Arrestin HTS for Positive Allosteric Modulators of the Human D2 Dopamine Receptor: Potentiators; DiscoveRx D2 beta-arrestin cells, luminescence, 90 min; 100% = 57 uM dopamine signal; potentiation, % (no concentration beside the values); 360,000 compounds, 0.23% hits; D(2) dopamine receptor (Homo sapiens), P14416; active = potentiation of 50% or more; inconclusive = 30% to 50%; inactive = 30% or less;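 also: compound concentration not given in the record; tested on top of an EC20 dose of dopamine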
# Target sequence (P14416 whole entry, looked up): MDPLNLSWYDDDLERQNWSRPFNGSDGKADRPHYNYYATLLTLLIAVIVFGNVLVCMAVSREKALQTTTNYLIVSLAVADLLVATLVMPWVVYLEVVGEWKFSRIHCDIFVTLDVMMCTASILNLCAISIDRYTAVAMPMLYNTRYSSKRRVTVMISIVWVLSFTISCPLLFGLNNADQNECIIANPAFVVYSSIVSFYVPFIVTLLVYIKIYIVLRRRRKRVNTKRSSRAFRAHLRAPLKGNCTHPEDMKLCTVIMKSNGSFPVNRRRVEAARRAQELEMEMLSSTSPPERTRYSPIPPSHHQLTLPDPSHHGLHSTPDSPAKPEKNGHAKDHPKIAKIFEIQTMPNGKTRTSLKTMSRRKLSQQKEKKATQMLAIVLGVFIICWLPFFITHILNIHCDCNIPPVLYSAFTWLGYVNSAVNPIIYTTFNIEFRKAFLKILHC
#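 PathHunter beta-arrestin assay in DiscoveRx D2 cells. Compounds were added with an EC20 of dopamine (50 nM final) for 90 min at 37 deg C. Luminescence was read 1 h after detection reagent, with 57 uM dopamine as the EC100 control.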
# CtBP-E1A inh = qHTS Assay for Inhibitors of the CtBP/E1A Interaction; CtBP / adenovirus E1A interaction (AlphaScreen); activity change, % (test concentration not listed); AlphaScreen GST-E1A/His-CtBP binding, 1536-well; stronger effect = lower value; control for the full effect not named in the record; AID 651724, 2012; 340,000 compounds, 0.49% hits; in the data active means activity change below about -65%; inconclusive means about -30% to -65%; inactive means above about -30%; also: % is scaled to controls: 0 for no effect and ±100 for the full control effect
#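 In 5 uL wells, 23 nL compound meets equimolar GST-E1A and His-CtBP (5X stock 125 nM each) for 2 h, 37 °C. Beads (5X, 50 ug/mL) then 1 h, 37 °C, dark.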
# TRPML1 ag = qHTS for Agonists of the Human Mucolipin Transient Receptor Potential 1 (TRPML1); Mucolipin-1 (Homo sapiens), Q9GZU1; activation, % (concentration not given with the values); TRPML1-expressing cells, Ca2+ dye fluorescence, FDSS; host cell line not named in the record; reference of the full effect not given here; AID 624414, 2012; 410,000 compounds, 0.12% hits; in the data active = activation above about 50%; inconclusive = about 30% to 50%; inactive = below about 30%; also: 0% is about no effect; the text of the record puts the active cut at 80%
# Target sequence (Q9GZU1 whole entry, looked up): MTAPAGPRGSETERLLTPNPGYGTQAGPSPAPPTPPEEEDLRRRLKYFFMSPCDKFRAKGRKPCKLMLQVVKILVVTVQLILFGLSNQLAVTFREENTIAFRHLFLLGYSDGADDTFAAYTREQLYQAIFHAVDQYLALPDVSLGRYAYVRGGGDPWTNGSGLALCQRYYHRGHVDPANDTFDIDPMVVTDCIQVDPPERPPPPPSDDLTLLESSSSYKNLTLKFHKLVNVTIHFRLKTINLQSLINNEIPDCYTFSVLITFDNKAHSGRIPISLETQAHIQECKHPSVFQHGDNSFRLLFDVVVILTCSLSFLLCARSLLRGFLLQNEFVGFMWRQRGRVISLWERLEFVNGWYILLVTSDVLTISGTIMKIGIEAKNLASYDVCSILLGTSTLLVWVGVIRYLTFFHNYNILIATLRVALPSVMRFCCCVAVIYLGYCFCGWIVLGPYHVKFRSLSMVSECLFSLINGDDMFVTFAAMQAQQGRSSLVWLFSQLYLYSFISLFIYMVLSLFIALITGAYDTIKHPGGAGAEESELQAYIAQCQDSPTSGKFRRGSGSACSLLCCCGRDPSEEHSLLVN
#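 TRPML1-DL cells, Tet-induced overnight (~16 h, 37 degrees C), loaded 45-90 min at room temperature with Ca8 no-wash calcium dye plus quencher. FDSS fluorescence: 10 s baseline, compound pin-transfer, 110 s agonist read, then EC80 54-4 (4uM final) and 110 s antagonist read.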
# Six1-Eya2 inh = qHTS Assay for Inhibitors of the Six1/Eya2 Interaction | activity change, % (concentration not given with the values) | AID 651725, 2012 | 360,000 compounds, 0.56% hits | AlphaScreen GST-Six1/His-Eya2 binding, biochemical; stronger effect = lower value; control for the full effect not named in the record | Homeobox protein SIX1 (Homo sapiens) + Protein phosphatase EYA2 (Homo sapiens), …; in the data active = activity change below about -65%; inconclusive = about -30% to -65%; inactive = above about -30%; also: % is scaled to controls: 0 for no effect and ±100 for the full control effect
#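 Compounds are tested against tagged Six1 and Eya2 proteins bridged by glutathione donor and nickel acceptor beads; after a one-hour incubation at 37 °C without light, AlphaScreen emission is recorded.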
# TRPV1 PAM = HTS Assay for Compounds that Act as Potentiators of the Vanilloid Receptor 1; Transient receptor potential cation channel subfamily V member 1 (Homo sapiens), Q8NER1; TRPV1-expressing cells, Fluo-8 calcium influx, capsaicin EC20 potentiation; host cell line not named in the record; control for the full effect not named in the record; potentiation, % at 8.33 µM; 320,000 compounds, 0.02% hits; AID 540277, 2011; active means potentiation above 80%; inconclusive means 30% to 80%; inactive means below 30%; also: 0% is about no effect
#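 Cells expressing TRPV1 were dye-loaded with Fluo-8 and read kinetically: 10 s baseline, 3 min after compound (agonist portion), then 2 min after EC20 capsaicin (allosteric enhancer portion). Calcium-bound dye fluorescence at 480/520 nm.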
# TRPML1 blocker = qHTS for Inhibitors of the Human Mucolipin Transient Receptor Potential 1 (TRPML1); activity change, negative = inhibition, % (no concentration beside the values); TRPML1-inducible cells, Ca2+ dye fluorescence, FDSS; stronger effect = lower value; inhibition of EC80 agonist-evoked calcium signal; Mucolipin-1 (Homo sapiens), Q9GZU1; 390,000 compounds, 0.02% hits; in the data active means activity change below about -50%; inconclusive means about -30% to -50%; inactive means above about -30%;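 also: stimulus is agonist 54-4 at its EC80 concentration; % is scaled to controls: 0 for no effect and ±100 for the full control effect; compound concentration not given in the record; the text of the record puts the active cut at -80%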
#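 TRPML1-DL cells, Tet-induced overnight (~16 h, 37 °C) at 1,500 cells/well, were loaded with Ca8 no-wash dye plus quencher for 45-90 min at room temperature. Compounds were pinned during FDSS kinetic reading; agonist 54-4 at EC80 (4 uM final) then added.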
# * marks the source's active call; other numbers are inactive results; ? = inconclusive; . = no result given; & = joins results of further samples. An unsorted share of the library; any-hit rate near 0.95%.
SMILES,D2 PAM,CtBP-E1A inh,TRPML1 ag,Six1-Eya2 inh,TRPV1 PAM,TRPML1 blocker
Cc1ccc(C(=O)NCC(=O)OCn2nnc3ccccc3c2=O)cc1,-4,4,0.3,3,9,5
Cc1ccnc(NS(=O)(=O)Cc2ccccc2)c1,1,2,-0.3,-2,5,5
COc1ccc(/C=C/C(=O)OCC(=O)NCc2cccs2)cc1OC,-7,-20,1.8,0,-4,8
CCN1C(=O)[C@H]2[C@@H](c3ccc(-c4ccccc4)cc3)N[C@@](Cc3ccccc3)(C(=O)OC)[C@H]2C1=O,-7,0,0.5,6,-18,-26
O=[N+]([O-])c1ccc2c(c1)C(=NO)c1cc(Cl)c(Cl)cc1-2,-12,-29,-0.3,?,.,-6
CCCCn1c(N)c(N(CCOC)C(=O)C2CC(=O)N(c3ccc(CC)cc3)C2)c(=O)[nH]c1=O (configuration not stated),-3,1,0.3,10,-2,-10
Nc1c(N2CCCC2)cc(Cl)c2nonc12,9,?,3.1,7,-3,-5
CCCc1ccc(Oc2cc(Cl)nc(N)n2)cc1,-23,1,0.1,1,2,-4
CCN(CC(=O)Nc1ccc(NC(C)=O)cc1)C(=O)CCCc1nc2ccccc2s1,-2,6,1.0,0,0,5
O=C(Nc1cc(S(=O)(=O)N2CCCCC2)ccc1Cl)C1COc2ccccc2O1 (configuration not stated),-18,7,0.9,-9,.,20
Cc1ccc(S(=O)(=O)NN=C2CCN(Cc3ccccc3)CC2)cc1,-28,-12,0.8,-3,8,-9
COCCNS(=O)(=O)c1ccc(C)c(C)c1C,-4,-23,-0.6,-1,-2,11
CC(=O)Nc1c(Cl)cc(Cl)c2c1Cc1cc(Cl)ccc1-2,-1,-2,-0.2,7,.,-17
CCCc1cc(C(F)(F)F)c(C#N)c(=O)[nH]1,19,3,-1.2,2,17,0
CCCCNC(=O)c1ccc2nc(-c3ccco3)c(-c3ccco3)nc2c1,17,-22,-0.3,-25,2,-8
O=C(CNC(=O)c1ccccc1Br)N/N=C/c1cccnc1,-12,2,-0.1,3,0,25
Cc1ccc(/C=N/NC(=O)COc2ccc(Cl)c(C)c2)o1,2,-2,-0.7,0,22,2
COc1ccc(-n2c(SCC(=O)N3CCOCC3)nnc2C(C)N2CCCCC2)cc1 (configuration not stated),-10,-3,.,3,28,.
Cc1nc(-c2ccc(Cl)cc2)sc1C(=O)CBr,-26,-9,0.4,-13,15,15
CCOC(=O)/C=C/[C@H]1CC(c2ccccc2)(c2ccccc2)CO1,2,11,1.7,5,-14,0
Cc1cccc(NC(=O)COC(=O)COc2ccc3c(c2)CCC3)c1,-16,7,-0.3,1,-1,7
COc1ccc(-c2csc(NC(=O)COC(=O)c3ccco3)n2)cc1,-6,-3,0.6,-1,12,6
Cc1cc(C)nc(NC(=O)c2c(-c3ccccc3Cl)noc2C)n1,6,-7,0.4,0,9,-12
COCCNc1ncnc2c1cnn2Cc1ccccc1Cl,-12,.,0.1,10,-5,-13
NC(N)=NNC(=O)c1ccccc1Cl,-4,1,0.2,-8,2,-14

# Full records as entered above:
# Listed for COCCNc1ncnc2c1cnn2Cc1ccccc1Cl = D2 PAM = -12; CtBP-E1A inh = .; TRPML1 ag = 0.1; Six1-Eya2 inh = 10; TRPV1 PAM = -5; TRPML1 blocker = -13
# Listed for COc1ccc(-n2c(SCC(=O)N3CCOCC3)nnc2C(C)N2CCCCC2)cc1 (configuration not stated) = D2 PAM = -10; CtBP-E1A inh = -3; TRPML1 ag = .; Six1-Eya2 inh = 3; TRPV1 PAM = 28; TRPML1 blocker = .

# The listing picks up; the three compounds before the break are reprinted first.
SMILES,D2 PAM,CtBP-E1A inh,TRPML1 ag,Six1-Eya2 inh,TRPV1 PAM,TRPML1 blocker
Cc1cc(C)nc(NC(=O)c2c(-c3ccccc3Cl)noc2C)n1,6,-7,0.4,0,9,-12
COCCNc1ncnc2c1cnn2Cc1ccccc1Cl,-12,.,0.1,10,-5,-13
NC(N)=NNC(=O)c1ccccc1Cl,-4,1,0.2,-8,2,-14
CCOC(=O)CN(C)Cc1cn[nH]c1-c1ccc2cc(OC)ccc2c1,-2,-1,-1.5,1,12,24
O=C(NC1CCCC1)C1c2ccccc2OCC(=O)N1Cc1ccccn1 (configuration not stated),.,2,-0.5,-4,.,.
COc1ccc(NC(=O)Cn2cnc3sc(C)c(S(=O)(=O)N4CCN(C)CC4)c3c2=O)cc1OC,-6,2,-0.5&-0.3,4,-1,-6&2
CCNC(=S)N(CCc1ccccc1C)Cc1cc2cc(OC)c(OC)cc2[nH]c1=O,-9,0,-0.7,-2,-1,5
CCOc1ccccc1C(=O)NC(C)CCc1ccccc1 (configuration not stated),-18,.,-0.8,7,.,-4
Cc1cccnc1NC(=O)c1ccc(C(=O)c2ccccc2)cc1,20,8,0.4,3,-4,17
CC[C@]12c3[nH]c4cc(-c5ccco5)ccc4c3CCN1C(=O)[C@@H](CC(=O)NCc1cccc(C(F)(F)F)c1)C[C@@H]2C(=O)N1CCN(C(=O)C2CC2)CC1,-4,-8,3.0,-9,.,-11
CCc1csc(CNC(=O)C2CCC(=O)N(Cc3cccc(F)c3)C2)n1 (configuration not stated),-11,-18,0.1,-3,-2,-12
Cc1c(C(=O)NCc2ccccc2CN2CCCC2)oc2c(F)cccc12,-5,-4,-0.5,5,20,-12
COc1cccc(N2CC(C(=O)NCc3n[nH]c(=O)c4ccccc34)CC2=O)c1 (configuration not stated),-3,0,0.1,-6,-6,-15
O=C(CSc1nc2ccccc2s1)N1CCN(C(=O)c2ccco2)CC1,-12,-1,-1.8,-1,-8,5
CN(C)C(=O)C12CCC(C)(C(=O)C1Br)C2(C)C (configuration not stated),-5,0,0.5,8,-6,-13
COC(=O)C1=C(C)N(CCCC(=O)O)C(=O)NC1c1cc2c(cc1[N+](=O)[O-])OCO2 (configuration not stated),0,.,0.9,-3,-4,24
COc1ccc2c(Cl)cc(NC(=O)Nc3c(C)cccc3C)nc2c1,-4,0,-0.2,-13,.,7
Cc1ccc(Cc2nnc(SCC(=O)Nc3ccc(C)cc3C)[nH]c2=O)cc1,-4,9,0.5,-2,-17,2
CC1(C)CC(=O)c2sc(NC(=O)CCS(=O)(=O)c3ccccc3)nc2C1,6,9,-0.1,2,?,19
S=c1[nH]nc(COc2ccccc2)n1/N=C/c1ccccc1Br,-11,2,0.4,-25,-15,-6
C[C@H](O)[C@@H]1C(=O)N2CCc3c([nH]c4ccccc34)[C@@H]2C[C@@H]1N(C)C(=O)Nc1ccccc1,-6,-6,-0.3,-9,.,?
COC(=O)c1oc2ccc(Br)cc2c1NC(=O)CCCN1C(=O)c2ccccc2C1=O,-4,8,0.1,2,12,-9
Cc1ccc(S(=O)(=O)N2CCOCC2)cc1NC(=O)CSc1nnc(COc2ccccc2F)n1N,-11,-11,0.7,5,.,13
COc1ccc(CCNC(=O)Cn2cnc3c(nnn3Cc3ccc(C)cc3)c2=O)cc1OC,1,-3,0.1,4,-12,25
O=C(NCC1CCN(Cc2ccccc2Cl)CC1)Nc1cccc(Cl)c1,-26,-4,-0.6,-8,-13,2
Cn1nc(-c2ccc(N3CCCCC3)c(NC(=O)c3ccco3)c2)c2ccccc2c1=O,-15,11,1.9,0,-10,39
CC1CCCCN1C(=O)CSc1nc2ccccc2n1CC(=O)N1CCc2ccccc21 (configuration not stated),-18,-9,0.9,-8,-31,0
Cc1c(NC(=O)COC(=O)c2cccn2C)c(=O)n(-c2ccccc2)n1C,-2,1,0.2,8,.,14
SMILES,D2 PAM,CtBP-E1A inh,TRPML1 ag,Six1-Eya2 inh,TRPV1 PAM,TRPML1 blocker
O=Cc1ccc(-c2nc3ccccc3s2)o1,-1,2,-0.5,-9,5,5
CC(=O)N1CCN(c2nnnn2-c2ccccc2)CC1,-9,6,-0.5,-1,5,2
C=CCN(CC=C)Cc1cc(=O)oc2cc(C)ccc12,-5,-17,-0.7,4,.,.
Cc1ccc(-c2nn(-c3ccccc3)cc2/C=N/NS(=O)(=O)c2ccccc2)cc1,2,-1,0.6,-8,16,16
COc1cccc(C(C(=O)NC2CCCC2)N(Cc2ccccc2OC)C(=O)c2ccco2)c1 (configuration not stated),-20,-1,0.0,-3,29,-2
CC1CC(C)CN(C(=S)SCc2nc(N)nc(Nc3ccccc3)n2)C1 (configuration not stated),-9,-26,4.4,-12,4,30
Cc1c(NS(=O)(=O)c2cccc(C(=O)NC(C)c3ccccc3)c2)c(=O)n(-c2ccccc2)n1C (configuration not stated),6,1,0.0,2,.,-13
Cc1ncc(CO)c(CNc2ccc(-c3nc4ccccc4[nH]3)cc2)c1O,-8,-12,2.6,-11,2,-1
COc1ccc(-c2noc(CN(C)S(=O)(=O)c3ccc(C)cc3)n2)cc1,-3,10,-1.1,18,-5,1
CCOCCn1c(CN2CCN(C(c3ccccc3)c3ccccc3)CC2)nc2c1c(=O)n(C)c(=O)n2C,-5,3,0.0,-5,7,-4
COc1ccc2cc(C(c3nnnn3CC3CCCO3)N3CCOCC3)c(=O)[nH]c2c1 (configuration not stated),-6,-3,-0.2,1,23,-10
COc1cc(C(=O)N2CCCc3ccccc32)c([N+](=O)[O-])cc1OC,1,-9,0.1,-2,4,-6
CC12CCC(C(=O)N(Cc3ccccc3)Cc3ccccc3)(OC1=O)C2(C)C (configuration not stated),7,4,3.3,8,-6,60
CCN(CC)C(=O)C1=C(C)N(CCC2=CCCCC2)C(=O)C(CC(=O)NCCN2CCOCC2)C1 (configuration not stated),0,6,-0.6,7,.,-23
CCCCc1ccc(N=N/C(C(=O)Nc2ccccc2OC)=C(/C)O)cc1,-25,-23,0.5,-3,-11,-17
N/C(CSc1nc(-c2ccccc2)c(-c2ccccc2)o1)=N\O,-15,-3,0.4,-25,-25,-12
COc1cc(CCCN2C(=O)C(=O)NC[C@@H]2C(C)O)cc(OC)c1OC (some centres not stated),3,-1,1.4,-3,-9,-17
O=C1NCCCC2c3c(cc(Br)c(O)c3Br)OC12N1CCCCC1 (configuration not stated),17,-2,-0.9,-10,10,-1
O=C(CN1C(=O)NC2(CCCC2)C1=O)N1CCN(c2ccccc2O)CC1,2,0,0.3,3,27,-19
Cc1cc(C)c(C#N)c(N2CCN(c3ccc(F)cc3)CC2)n1,1,1,0.5,0,-55,5
O=C(NC1=NCCS1)c1cc(-c2cccnc2)nc2ccccc12,0,2,0.1,-2,-18,-14

# Source: PubChem (National Center for Advancing Translational Sciences (NCATS))
